PINK1 modulator – PINK1 expression modulation | PINK1 immunofluorescence, high-content cytometry, 24 h | 410,000 tested, 0.2% active | Potency, µM (doses to about 76.6 µM), for inactives: at the top dose activation (PINK1 increase), hits mostly activators; active = well fitted activation curve with a large enough effect; inconclusive = small, poorly fitted or top-dose-only effect; inactive = flat fitted curve, though single readings scatter; cell line not stated here;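 also: potency is read from the fitted curve at half-maximal effect; % of control where 0% means no effect; nearly all actives have a fitted effect of over 65% in size; a mitochondrial uncoupler was the plate control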
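Stable cell line treated 24 h with compounds at 5 concentrations (CCCP controls), then fixed and immunostained for PINK1 plus nuclear and cell stains; PINK1 immunofluorescence quantified by laser-scanning microplate cytometry.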
TRPV1 PAM – enhances activation of the human vanilloid receptor TRPV1. AID 540277. potentiation, % at 8.33 µM. TRPV1-expressing cells, Fluo-8 calcium influx, capsaicin EC20 potentiation; host cell line not named in the record; control for the full effect not named in the record. Q8NER1. 320,000 tested, 0.02% active; active means potentiation above 80%; inconclusive means 30% to 80%; inactive means below 30%; also: 0% is about no effect
Target sequence (Q8NER1 whole entry, looked up): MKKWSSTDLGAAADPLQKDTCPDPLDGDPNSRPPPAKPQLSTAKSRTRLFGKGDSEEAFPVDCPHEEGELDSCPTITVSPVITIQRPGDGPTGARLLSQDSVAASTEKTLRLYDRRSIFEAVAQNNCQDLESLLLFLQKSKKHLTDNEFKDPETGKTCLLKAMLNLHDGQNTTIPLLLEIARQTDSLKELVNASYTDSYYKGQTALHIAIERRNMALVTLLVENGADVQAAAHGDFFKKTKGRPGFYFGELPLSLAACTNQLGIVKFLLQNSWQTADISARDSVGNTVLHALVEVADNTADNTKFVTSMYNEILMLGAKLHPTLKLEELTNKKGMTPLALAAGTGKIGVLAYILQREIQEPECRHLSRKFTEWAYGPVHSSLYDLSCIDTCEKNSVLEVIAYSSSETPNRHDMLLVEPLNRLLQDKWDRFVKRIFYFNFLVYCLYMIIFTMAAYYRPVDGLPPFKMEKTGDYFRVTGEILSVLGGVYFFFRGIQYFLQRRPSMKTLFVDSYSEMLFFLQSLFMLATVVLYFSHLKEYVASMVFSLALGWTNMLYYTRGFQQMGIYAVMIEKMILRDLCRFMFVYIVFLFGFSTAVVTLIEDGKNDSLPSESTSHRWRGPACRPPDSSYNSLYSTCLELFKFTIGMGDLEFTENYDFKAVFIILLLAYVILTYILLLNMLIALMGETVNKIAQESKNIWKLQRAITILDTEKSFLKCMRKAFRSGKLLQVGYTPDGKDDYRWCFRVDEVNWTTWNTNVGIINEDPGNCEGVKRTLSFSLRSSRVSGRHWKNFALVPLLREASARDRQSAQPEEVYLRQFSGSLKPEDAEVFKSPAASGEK
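Cells expressing TRPV1 were dye-loaded with Fluo-8 and read kinetically: 10 s baseline, 3 min after compound (agonist portion), then 2 min after EC20 capsaicin (allosteric enhancer portion). Calcium-bound dye fluorescence at 480/520 nm.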
Menin-MLL FL inh – menin-MLL binding inhibition, fluorescein peptide. FP activity change, % at 61.4 µM. Fluorescence polarization, fluorescein-MLL peptide displacement from menin. 290,000 tested, under 10 active; inconclusive = falling polarisation curve, or a change in total fluorescence; inactive = total fluorescence flat and polarisation flat or rising; no compound was filed as active; the % refers to the polarisation; negative = inhibition;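 also: % of control where 0% means no effect; inhibitors lower the polarisation; unlabelled MLL peptide was the positive control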
TRPML1 blocker – human mucolipin-1 channel inhibition. 390,000 tested, 0.02% active. activity change, negative = inhibition, % (test concentration not listed). AID 624415. TRPML1-inducible cells, Ca2+ dye fluorescence, FDSS; active compounds read low; inhibition of EC80 agonist-evoked calcium signal; in the data active means activity change below about -50%; inconclusive means about -30% to -50%; inactive means above about -30%;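 also: stimulus is agonist 54-4 at its EC80 concentration; % is scaled to controls: 0 for no effect and ±100 for the full control effect; compound concentration not given in the record; the text of the record puts the active cut at -80%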
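Calcium fluorescence in TRPML1-DL cells induced overnight with Tet: a 110 s read after compound pin addition, then a 110 s antagonist read after challenge with 54-4 at 4 uM final (EC80).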
Sfp PPTase inh – blocks B. subtilis Sfp PPTase activity | 310,000 tested, 3.5% active | Biochemical Sfp PPTase activity, qHTS | Potency, µM, without a hit: max response, negative = inhibition, actives largely listed as inhibitors | Q9F4F7; active = well fitted inhibition curve with a large enough effect; inconclusive = small, poorly fitted or top-dose-only effect, or another doubt; inactive = no such curve, though single readings can be large or run the other way;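 also: the enzyme is Sfp with the accession as filed and its product quenches rhodamine fluorescence; potency is read from the fitted curve at half-maximal effect; 0% = enzyme reaction without inhibitor and -100% = no enzyme wells; top concentration of the series not given in the record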
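Reaction rates are the 30-min fluorescence difference (ex 525, em 598 nm) in wells containing 15 nM Sfp, 5 uM rhodamine-CoA and 12.5 uM BHQ-2-YbbR at pH 7.6 with 10 mM MgCl2.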
TRPML1 agonist – human mucolipin-1 channel agonism; TRPML1-expressing cells, Ca2+ dye fluorescence, FDSS; host cell line not named in the record; reference of the full effect not given here; activation, % (no concentration beside the values); 410,000 tested, 0.12% active; in the data active = activation above about 50%; inconclusive = about 30% to 50%; inactive = below about 30%; also: 0% is about no effect; the text of the record puts the active cut at 80%
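Calcium fluorescence on an FDSS kinetic reader gave the read-out. Tet-induced TRPML1-DL cells were plated overnight, dye-loaded (Ca8 with quencher, 45-90 min, room temperature, dark), then read 110 s after compound addition, and again 110 s after 4uM final 54-4 (EC80).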
ClpP mod – qHTS Assay for Activators of ClpP. ATP-dependent Clp protease proteolytic subunit (Bacillus subtilis (strain 168)), P80244. purified B. subtilis ClpP, FRET peptide cleavage, 20 min. Potency, µM (top dose mostly 57.5 µM), for inactives: at the highest dose activity change, negative = active. 340,000 tested, 1.9% active. AID 651965, 2013; active = well fitted falling curve with a large enough effect; inconclusive = small, poorly fitted or top-dose-only effect; inactive = no such curve, though single readings can be large or run the other way; also: potency is read from the fitted curve at half-maximal effect; the source files actives as falling curves though it sought activators and does not explain the sign; nearly all actives have a fitted effect of over 65% in size; many hits overshoot -100%
Target sequence (P80244 whole entry, looked up): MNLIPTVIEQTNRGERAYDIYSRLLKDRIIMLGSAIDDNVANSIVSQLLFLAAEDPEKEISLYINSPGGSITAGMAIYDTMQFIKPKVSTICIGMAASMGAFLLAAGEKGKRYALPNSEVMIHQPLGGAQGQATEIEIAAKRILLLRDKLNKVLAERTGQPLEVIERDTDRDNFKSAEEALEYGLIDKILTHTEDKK
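ClpP 10 microg/mL final, pH 8 Tris/KCl buffer with BSA, glycerol, Tween-20; compound pinned in; FRET-FV substrate; RT 20 min; Ex320/Em430; ΔFRET vs ADEP 5.8 microM, DMSO, no enzyme.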
An asterisk follows results filed as active; ? = inconclusive; . = not tested or not shown; [ ] = another dose, or the depositor's remark.

SMILES	PINK1 modulator	TRPV1 PAM	Menin-MLL FL inh	TRPML1 blocker	Sfp PPTase inh	TRPML1 agonist	ClpP mod
Cc1ccc(CC(NC(=O)c2ccccc2)C(=O)NCC(=O)O)cc1 (stereo not drawn)	4.6%[38.3 µM]	5	4.7	2	4%	0.2	-0.9%
Cc1[nH]c(=O)[nH]c(=O)c1S(=O)(=O)N1CCN(c2ccccc2Cl)CC1	-1.0%	.	.	-9	.	-0.4	0.1%
CCN(C(=O)COC(=O)/C=C/c1ccc(OC(F)F)c(OC)c1)C1CCS(=O)(=O)C1 (stereo not drawn)	1.6%	-1	.	11	.	1.2	?
Cc1cccc(NC(=O)C(=O)NCc2ccc3c(c2)OCO3)c1C	5.4%	-12	1.4	0	-1%	-0.5	.
CCCCCCCCCCSc1n[nH]c(NC(C)=O)n1	4.4%[38.3 µM]	20	0.0	15	17%	-0.3	0.9%
O=C(COC(=O)c1cccnc1Cl)NC1CCCCC1	0.7%	.	.	12	.	-1.6	0.5%
CCN(CC)S(=O)(=O)c1cccc(NC(=O)COc2ccc(C#N)cc2OC)c1	-0.7%	-1	-0.6	14	1%	-0.4	-1.4%
CCCC(c1nnnn1CC(=O)OCC)N(Cc1cc2ccc(C)cc2[nH]c1=O)C1CCCC1 (stereo not drawn)	6.0%	-1	1.4	12	4%	2.6	18µM*
CN(C1CCCCC1)S(=O)(=O)c1ccc(NC(=S)NC(=O)c2cccs2)cc1	3.4%[38.3 µM]	-13	1.2	7	-12%	0.0	1.0%
CCC(=O)NS(=O)(=O)c1ccc(N=NN2CCCCC2)cc1	0.3%	-1	6.3	0	7%	-0.4	0.6%
Cc1ccc(C)c(S(=O)(=O)N2CCCC2CNC(=O)C(=O)NCCc2ccccc2)c1 (stereo not drawn)	6.4%	24	.	5	.	0.9	-1.7%
C=CCNc1cnn(-c2ccc(C)cc2)c(=O)c1Sc1ccc(C)cc1	1.7%	-11	-2.6	15	2%	-0.1	3.0%
Cc1sc2ncnc(N3CCC(C(=O)Nc4cc(C(F)(F)F)ccc4OCC(F)(F)F)CC3)c2c1C	4.2%	.	.	9	.	-0.2	-3.1%
COC(=O)Nc1nnc(-c2ccccc2Cl)s1	1.1%	-8	3.2	-16	5%	1.3	?
CN(C)c1nc2c(c(=O)[nH]c(=O)n2C)n1Cc1ccccc1Br	3.7%[38.3 µM]	?	25	-17	3%	0.0	-1.4%
COC(=O)C1=C(C)N(CC2CCCO2)C(=O)C1 (stereo not drawn)	5.6%[38.3 µM]	1	2.9	1	13%	0.1	-2.0%
O=C(CN1C(=O)COc2ccc(S(=O)(=O)NC3CCCC3)cc21)Nc1ccc(F)c(Cl)c1	?	.	.	3	.	1.5	-0.6%
COc1cccc(N2CCN(CC(=O)Nc3ccccc3C(=O)NCc3ccccc3)CC2)c1	-0.6%	3	.	26	.	1.9	-13%
CCCCNC(=O)CSc1nc2cc3c(cc2c(=O)n1CCC(=O)NCCc1ccc(OC)c(OC)c1)OCO3	0.7%	6	-2.0	-3	8%	0.8	.
COc1ccccc1NC(=O)CCSc1nnc(-c2ccco2)o1	-0.8%	5	1.3	24	26%	0.8	.

3 entries drawn at random from those above:
SMILES	PINK1 modulator	TRPV1 PAM	Menin-MLL FL inh	TRPML1 blocker	Sfp PPTase inh	TRPML1 agonist	ClpP mod
O=C(CN1C(=O)COc2ccc(S(=O)(=O)NC3CCCC3)cc21)Nc1ccc(F)c(Cl)c1	?	.	.	3	.	1.5	-0.6%
CCCCNC(=O)CSc1nc2cc3c(cc2c(=O)n1CCC(=O)NCCc1ccc(OC)c(OC)c1)OCO3	0.7%	6	-2.0	-3	8%	0.8	.
Cc1sc2ncnc(N3CCC(C(=O)Nc4cc(C(F)(F)F)ccc4OCC(F)(F)F)CC3)c2c1C	4.2%	.	.	9	.	-0.2	-3.1%

Carrying on.
SMILES	PINK1 modulator	TRPV1 PAM	Menin-MLL FL inh	TRPML1 blocker	Sfp PPTase inh	TRPML1 agonist	ClpP mod
COCCn1c(=N)c(C(=O)NCc2ccco2)cc2c(=O)n3ccccc3nc21	-1.5%	-3	-1.6	3	0%	-0.2	28µM*
Cn1nc(C(=O)Nc2cccc(S(=O)(=O)N3CCCCC3)c2)c2ccccc2c1=O	0.4%	5	.	-13	.	1.9	.
O=C(O)c1cccc(NC(=S)NC(=O)c2ccncc2)c1	2.1%	-2	0.3	11	?	-0.6	.
COCCNC(=O)CN(CCc1ccccc1)S(=O)(=O)c1ccc(OC)cc1	-2.7%	?	2.8	16	?	-1.4	1.5%
COc1cccc(-n2c(Cc3cc(=O)[nH]c(=O)[nH]3)nnc2SCC(=O)N2CCCC2)c1	-1.0%	2	2.4	-2	21%	1.0	-1.9%
CCn1cc(CNCc2ccc(OCC(O)CN(C)Cc3ccccc3)cc2)cn1 (stereo not drawn)	-0.7%	-1	-1.2	-25	3%	-0.6	.
COCCCNC(=O)c1ccc(N2CCCC2)c(NS(=O)(=O)c2ccc(C)cc2)c1	5.9%[38.3 µM]	8	-3.9	3	?	-0.2	-5.0%
Cn1nnc2cc(NC(=O)N3CCN(c4ccccn4)CC3)ccc21	-3.7%[38.3 µM]	-1	0.2	19	21%	0.5	-9.6%
O=C(O)CCC(=O)c1ccc2c(c1)OCCO2	-0.2%	.	2.2	-3	12%	-0.6	-11%
CC(=O)N1N=C(c2cccc(Br)c2)OC12CCCC2	5.1%	-9	-0.7	22	3%	0.7	.
CC(=O)Nc1sc2c(c1C(=O)N1CCOCC1)CCCCC2	-0.5%	7	0.8	13	13%	2.3	-3.1%
O=C(O)[C@@H]1Cc2ccccc2N1	1.1%	1	0.9	-23	-6%	2.1	-7.4%
O=c1n(-c2ccccc2)c(=O)n2n1CCC2	-0.6%	1	0.4	7	21%	1.5	-0.2%
CCn1c(SCC(=O)Nc2oc(-c3ccccc3)c(-c3ccccc3)c2C#N)nnc1-c1cc(OC)cc(OC)c1	?	19	3.7	-9	13%	3.0	-6.2%
O=C(CC1OC(=O)c2ccccc21)NCC1COc2ccccc2O1 (stereo not drawn)	1.4%	-12	.	-14	.	-0.5	-4.5%
Cc1ccc(S(=O)(=O)N2CCN(CC(O)CN3CCOCC3)CC2)cc1 (stereo not drawn)	-1.4%	-2	.	-18	.	-0.1	-2.9%
CN1CCN(C(=O)CSc2nc(-c3cccs3)ccc2C#N)CC1	-1.1%	-6	?	36	?	4.7	?
Cc1cc2c(c(CO)c1CCO)C(=O)[C@@H](C)[C@@H]2O	-0.7%	.	.	-9	.	-0.5	1.4%
COc1ccccc1N1C(=O)c2ccccc2NC1c1ccc(O)cc1 (stereo not drawn)	2.1%	24	-0.9	-9	-2%	-0.3	4.1%
O=C(Nc1ccccn1)c1ccc(S(=O)(=O)N2CCCCCC2)cc1	-1.2%	-23	.	-12	.	1.1	?

Brought forward from above: two entries, then new ones.
SMILES	PINK1 modulator	TRPV1 PAM	Menin-MLL FL inh	TRPML1 blocker	Sfp PPTase inh	TRPML1 agonist	ClpP mod
COc1ccccc1N1C(=O)c2ccccc2NC1c1ccc(O)cc1 (stereo not drawn)	2.1%	24	-0.9	-9	-2%	-0.3	4.1%
O=C(Nc1ccccn1)c1ccc(S(=O)(=O)N2CCCCCC2)cc1	-1.2%	-23	.	-12	.	1.1	?
O=C(CSc1ncnc2scc(-c3ccc(F)cc3)c12)c1ccc2c(c1)OCCO2	-0.5%	8	-2.8	40	14%	1.2	0.7%
Cc1cccnc1NC(=O)c1ccc(S(=O)(=O)N2CCCCC2)cc1	0.9%	7	.	-10	.	-0.1	3.5µM*
COc1cccc(NC(=O)CN(C)CC(=O)Nc2cccc(C(F)(F)F)c2)c1	9.9%	-5	-4.8	15	10%	-0.4	.
Cc1nc2ccc(C(=O)Nc3ccccc3Cl)cc2s1	2.3%	-31	-1.3	.	18%	.	0.7%
Cc1c(Cl)cccc1N(CC(=O)N1CCCCCC1)S(C)(=O)=O	-3.6%[38.3 µM]	-2	10	3	10%	0.0	0.3%
C=CCC(=O)OCC(=O)Nc1ccc(Oc2ccccc2)cc1	.	11	0.4	.	-3%	.	.
O=C(c1ccc2c(c1)OCO2)C1CCCN(C(=O)Nc2ccc(F)cc2F)C1 (stereo not drawn)	3.7%	2	0.6	-6	-6%	0.6	-12%
CCOC(=O)C(NCCc1ccc(F)cc1)(NC(=O)CC)C(F)(F)F (stereo not drawn)	1.7%	-15	1.4	1	2%	-0.1	-0.6%
CCOC(=O)C(C)C1(O)c2ccccc2-c2ncccc21 (stereo not drawn)	3.4%	0	3.0	-2	8%	1.3	-1.8%
O=C(N/N=C/c1cccs1)C(=O)Nc1cccc(Cl)c1	5.1%	-9	-3.9	22	16%	0.4	-2.4%
COc1ccc(OC)c(NC(=O)COC(=O)Cn2nnc(-c3ccccc3)n2)c1	1.3%	-7	.	2	.	1.6	-2.0%
CC(CC(F)(F)F)N1CCC(n2nccc2NC(=O)CCCc2ccccc2)CC1 (stereo not drawn)	-0.3%	-8	1.4	-4	15%	0.3	-0.3%
Cc1ccc(Br)c(NS(=O)(=O)c2cccc(C(=O)N3CCNC(=O)C3)c2)c1	0.1%	.	.	-25	.	0.0	?
CC(NC(=O)Cc1ccsc1)c1ccc(S(N)(=O)=O)cc1 (stereo not drawn)	-0.7%	6	2.5	-4	-15%	-0.5	-1.1%
CCOC(=O)N1CCN(CC(=O)c2c[nH]c3ccc(F)cc23)CC1	.	1	0.0	.	0%	.	.
Cc1ccc(N=Cc2c(O)n(-c3ccc4c(c3)OCO4)c(=O)c3ccccc23)cc1	14%	2	3.9	2	-28%	1.0	-1.2%
CCCc1[nH][nH]c(=O)c1C(c1ccc(Cl)cc1)C(C#N)C#N (stereo not drawn)	-1.2%[38.3 µM]	-2	-1.9	2	6%	0.4	-1.1%
O=C(Nc1ccccc1Br)c1cccc2ccccc12	1.5%	.	.	-29	.	0.8	-13%
O=c1[nH]cnc2c1nc(NCc1ccccc1)n2C1O[C@@H](CO)[C@H](O)[C@@H]1O (stereo partly drawn)	0.6%	-3	-6.5	-23	6%	-0.4	.
C#CCOC(=O)CCCC(=O)NCCCCCCCC	1.5%	-16	-0.2	2	11%	2.2	-2.2%
CC(Sc1nnnn1-c1ccc(O)cc1)C(=O)NNC(=O)c1ccc(F)cc1 (stereo not drawn)	-0.6%	6	.	-2	.	1.0	1.9%

Rows were taken by chance; about 4.4% have a hit in one of these screens.
